High-throughput results as filed in PubChem.
Sa growth 42C: S. aureus growth inhibition at 42 and 30 °C, primary screen, LtaS inhibitor project, RN4220, two temperatures; relative growth, % (test concentration not listed); hit rate 0.53% among 170,000; AID 720641, 2013; OD600, 20 h, 42 °C; hits give low values;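 active = growth at 42 °C up to 50% and 20 or more points under that at 30 °C, or under 10% at both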;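 also: 300 nL library stock went into each well; scaled to the means of positive and negative controls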
GIV-Gai inh: inhibitors of GIV peptide binding to Galpha-i3, primary screen, biochemical, fluorescence polarization, FITC-GIV GBA peptide, rat Galphai3; hit rate 0.42% among 210,000; percent of control (FP), % (concentration not given with the values); 90 min; hits give low values; scaled: aluminum fluoride 0%, vehicle 100%; AID 1224905, 2016;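 active = replicate mean at 85% of control or lower, very high polarization wells dropped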;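 also: wells of about 15 µL received 100 nL stock; the first replicate is given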
Target sequence (P08753 whole entry, looked up): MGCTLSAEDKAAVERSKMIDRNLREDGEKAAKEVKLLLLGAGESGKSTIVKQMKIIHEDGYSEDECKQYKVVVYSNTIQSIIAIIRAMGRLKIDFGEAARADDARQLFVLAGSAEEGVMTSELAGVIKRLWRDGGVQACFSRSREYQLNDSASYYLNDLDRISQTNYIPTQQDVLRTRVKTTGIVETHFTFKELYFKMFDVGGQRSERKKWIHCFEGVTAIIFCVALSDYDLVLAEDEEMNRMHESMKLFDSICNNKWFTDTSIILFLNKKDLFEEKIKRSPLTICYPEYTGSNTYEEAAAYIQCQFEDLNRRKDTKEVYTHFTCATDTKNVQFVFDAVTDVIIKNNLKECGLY
HCMV NEC inh: inhibitors of HCMV UL50-UL53 interaction, biochemical, HTRF; HCMV UL50-UL53 nuclear egress complex (human cytomegalovirus); normalized percent inhibition; inhibition, % (test concentration not listed); hit rate 0.15% among 190,000; AID 1918969, 2023;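 active = both replicates at 50% or more, plus weaker picks with an unusually low signal ratio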;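 also: stock transfer was 100 nL into about 20 µL; 0% = negative control wells and 100% = wells with untagged competitor protein; inactives centre near -12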
Sa growth 42C second temp: further read-out of Sa growth 42C, marked with its call; relative growth, %; measured here: growth at 30 °C;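 optical density after 20 h as mean of two plates; 100% = untreated growth and lower means inhibition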
Active calls of the source: *; x = not tested or not shown; & = joins results of further samples.

SMILES | Sa growth 42C | Sa growth 42C second temp | GIV-Gai inh | HCMV NEC inh
COc1cc(CNCCC2CCOC(C)(C)C2)ccc1O (stereo unspecified) | 88 | 91 | 104 | -6
CCC(=O)N1CCc2cc(Br)cc(S(=O)(=O)CCC(=O)Nc3ccc(C)c(C)c3)c21 | 116 | 88 | 102 | x
COc1ccc(-n2c(C)cc(CNS(=O)(=O)c3ccc4c(c3)CC(C)N4C(C)=O)c2C)cc1 (stereo unspecified) | x | x | 117 | -4
COCCOC(=O)C1=C(C)N(C)C(=O)NC1c1cc(Br)c(O)c(OC)c1 (stereo unspecified) | x | x | 104 | -13
CCc1nn(CC(=O)NCCC(C)C)c(=O)c2cc3occc3n12 | 103 | 94 | 104 | 1
CC1(C)Oc2nc3ccccc3n2/C1=C\C#N | 96 | 91 | 101 | -20
O=C(COC(=O)Cc1ccc(Cl)cc1Cl)NC1CCCCC1 | 133 | 85 | x | -35
Cc1ccc(CNC(=O)C2CCN(C(=O)c3ccnc(-c4ccccc4)c3)CC2)cc1 | x | x | 101 | -17
CCOC(=O)C(C(=O)Nc1ccc(N(CC)CC)cc1)C1CCCCC1 (stereo unspecified) | 91 | 107 | 106 | x
N#Cc1c(Cl)nc(-c2ccccc2)nc1-c1ccccc1 | x | x | 99 | -3
O=C(NCc1ccco1)OCC(F)(F)F | 104 | 93 | x | 8
CN(C(=O)COC(=O)C1COc2ccccc2O1)C1CCCCC1 (stereo unspecified) | 92 | 91 | x | -2
N/C(=N\O)c1c(-c2ccccc2)cc(-c2ccc(F)cc2)[nH]c1=O | 105 | 90 | 105 | -21
COc1ccc(N=C2SC(C(=O)Nc3ccccc3OC)CC(=O)N2Cc2ccc3c(c2)OCO3)cc1 (stereo unspecified) | x | x | 104 | -29
N#CC(C(=O)c1ccc(S(=O)(=O)N2CCCC2)cc1)c1nc2ccccc2[nH]1 (stereo unspecified) | 117 | 92 | x | -19

Quoted from the listing.
Under HCMV NEC inh, Cc1ccc(CNC(=O)C2CCN(C(=O)c3ccnc(-c4ccccc4)c3)CC2)cc1 has the entry -17
Under GIV-Gai inh, N#Cc1c(Cl)nc(-c2ccccc2)nc1-c1ccccc1 has the entry 99

Additional results follow.
SMILES | Sa growth 42C | Sa growth 42C second temp | GIV-Gai inh | HCMV NEC inh
NC(=O)c1cc(S(=O)(=O)NCCN2CCCCCC2)cs1 | 92 | 85 | 99 | -35
COC(=O)CC1NC(=O)NC1=O (stereo unspecified) | 92 | 87 | 100 | -19
N#C/C(=C\Nc1cccc(C(F)(F)F)c1)C(=O)N1CCOCC1 | 106 | 94 | 104 | -19
Cc1nn(-c2cc(N3CCCC3)ncn2)c(C)c1CCC(=O)NCc1ccccc1 | x | x | 101 | 13
O=c1cc(Cc2nnc(SCc3ccccc3)n2-c2ccccc2)[nH]c(=O)[nH]1 | 102 | 94 | 102 | 0
Cc1ccc(Cn2nc(C)c3cc(C(=O)NC4=NCCS4)sc32)cc1 | 140 | 81 | x | -19
CC(C(=O)N1CCc2ccccc21)n1sc2ccccc2c1=O (stereo unspecified) | 83 | 80 | 104 | x
O=C(c1cc(C2CC2)[nH]n1)N1CCN(c2ccccc2)CC1 | x | x | 102 | 8
CC(CNc1nc2ccccc2n2cnnc12)c1ccccc1 (stereo unspecified) | 77 | 41 | 102 | x
Cc1cc(C(C)(C)C)oc1C(=O)N(CC(=O)NC1CCCC1)c1ccc(F)cc1 | 104 | 92 | 96 | -9
CCNC(=O)CC1C(=O)N(CC)C(=S)N1NC(=O)c1ccccc1 (stereo unspecified) | 98 | 86 | 100 | x
O=C(NC1CCSC1)c1ccccc1NS(=O)(=O)c1ccccc1 (stereo unspecified) | 90 | 98 | 110 | 7
O=C(O)c1ccccc1-c1ccccc1C(=O)NCc1cccnc1 | 102 | 93 | 100 | -12
Cc1nn(-c2ccccc2)c2sc(C(=O)OCN3C(=O)c4ccccc4C3=O)cc12 | 108 | 97 | 101 | x
O=C(COc1ccccc1)Nc1cccc(F)c1C(=O)O | 94 | 88 | 97 | x
CC(=O)Nc1ccc(C(=O)N2CCN(C(=O)c3nsc4ccc(C)cc34)CC2)cc1 | x | x | 104 | -26
CCOC(=O)c1csc(-c2cn(-c3ccccc3)c(=O)n(C)c2=O)n1 | 92 | 82 | 104 | -46
CCOC(=O)c1nn(-c2ccc(Cl)cc2)c(=N)c2c(N)c(C#N)c(N)nc12 | 84 | 80 | x | -14
O=C1CC(c2ccccc2)N(c2cccc(C(F)(F)F)c2)C(=S)N1 (stereo unspecified) | 102 | 95 | 100 | -11
CCOC(=O)c1[nH]c(C)c(CCC(=O)Nc2ccc(N(CC)CC)cc2C)c1C | 119 | 88 | 103 | x
Cc1ccc(-n2nc(C)c3c(C)c(CCC(=O)NCC4CCN(C5CCCC5)C4)c(C)nc32)cc1C (stereo unspecified) | 109 | 89 | 103 | x
CCOC(=O)c1[nH]nc(C(=O)c2ccccc2)c1-c1ccccc1 | 28 | 12 | 102 | -1
O=C(COC(=O)c1c2c(nc3ccccc13)CCC2)NC1CC1 | 124 | 72 | x | -44
CCN1CCOC(=O)C1CC(=O)Nc1cc(C)ccc1OC (stereo unspecified) | 56 | 68 | 99 | 5
O=C(CC1SC(=O)NC1=O)Nc1ccccc1NC(=O)CC1SC(=O)NC1=O (stereo unspecified) | 81 | 66 | 99 | -45
O=C1C(c2ccc(F)cc2)N(CC2COc3ccccc3O2)C(=O)CN1C1CCCCC1 (stereo unspecified) | 103 | 82 | 102&107 | -26
CN1c2ccccc2C(=O)NC1c1ccc(Cl)c(Cl)c1 (stereo unspecified) | 80 | 24 | x | -4
CCOC(=O)c1c(C)oc2ncnc(N3CCN(c4ccccc4)CC3)c12 | 90 | 88 | 106 | x
O=C(CCCc1ccccc1)Nc1ncn[nH]1 | 104 | 90 | 101 | 5
CCCOc1ccc(C(=O)Nc2ccc3oc(-c4ccncc4)nc3c2)cc1 | 97 | 87 | 106 | -67
c1ccc(N=c2scc(-c3ccccc3)n2Cc2ccco2)cc1 | 87 | 77 | 100 | x
FC(F)(F)c1cccc(N2CCN(c3nc4ccccc4n4cnnc34)CC2)c1 | 108 | 78 | 107 | -2
Cc1nnc(NC(=O)c2ccc(F)cc2F)o1 | 70 | 65 | x | -26
CCCN1C(=O)c2ccccc2NC1c1ccc(C)cc1 (stereo unspecified) | 102 | 110 | 93 | -27
O=C(NCc1csc(-c2cccs2)n1)c1ccc2nsnc2c1 | 93 | 57 | 107 | -25
CCOc1ccc(/C=C/C(=O)Nc2ccc3[nH]c(=O)[nH]c3c2)cc1 | 101 | 90 | 95 | -16
OCCN1CCN(c2nc(N3CCCCC3)nc(N3CCCCC3)n2)CC1 | x | x | 105 | -18
Cc1ccc2nc(Cl)c3cc(C(=O)NC4CCCCCC4)sc3c2c1 | 89 | 100 | 109 | -1
Cc1ccc(Sc2ccc(N3CCCC(C(=O)Nc4ccc(Br)cc4)C3)nn2)cc1 (stereo unspecified) | 88 | 86 | 99 | -9
O=C(N/N=C1\SCC(=O)N1CCc1ccccc1)c1cccs1 | 123 | 80 | 105 | -7
O=C1c2ccccc2C(=O)N1CC(O)COc1ccc(Cl)cc1Cl (stereo unspecified) | 97 | 90 | 105 | -22
COc1cc(NC(=O)CN2C(=O)CCC2=O)cc(OC)c1OC | 78 | 93 | x | -16
CC1C/C(=N/NC(=O)C2CC2)CC(C)(C)C1 (stereo unspecified) | 93 | 92 | x | -23
COc1ccc(C(=O)COC(=O)C2Cc3ccccc3CN2S(C)(=O)=O)cc1 (stereo unspecified) | 83 | 94 | x | -16
COc1ccc(CNC(=O)Cn2c(-c3ccccc3)cc(C(C)=O)c2C)cc1OC | 134 | 96 | 96 | -26

Another view of four compounds above.
compound: CCOc1ccc(/C=C/C(=O)Nc2ccc3[nH]c(=O)[nH]c3c2)cc1
  Sa growth 42C: 101 | Sa growth 42C second temp: 90 | GIV-Gai inh: 95 | HCMV NEC inh: -16
compound: O=C(NCc1csc(-c2cccs2)n1)c1ccc2nsnc2c1
  Sa growth 42C: 93 | Sa growth 42C second temp: 57 | GIV-Gai inh: 107 | HCMV NEC inh: -25
compound: COc1ccc(C(=O)COC(=O)C2Cc3ccccc3CN2S(C)(=O)=O)cc1 (stereo unspecified)
  Sa growth 42C: 83 | Sa growth 42C second temp: 94 | GIV-Gai inh: x | HCMV NEC inh: -16
compound: FC(F)(F)c1cccc(N2CCN(c3nc4ccccc4n4cnnc34)CC2)c1
  Sa growth 42C: 108 | Sa growth 42C second temp: 78 | GIV-Gai inh: 107 | HCMV NEC inh: -2

Later entries.
SMILES | Sa growth 42C | Sa growth 42C second temp | GIV-Gai inh | HCMV NEC inh
CCOC(=O)c1cn2nc(N3CCCCC3)ccc2n1 | 101 | 80 | 110 | -2
CN(C)S(=O)(=O)c1ccc(N2CCCC2)c(C(=O)OCc2nc3ccsc3c(=O)[nH]2)c1 | 105 | 70 | x | 3
Cc1ccc(NC(=O)CN2C(=O)CCSc3ccc(S(=O)(=O)N4CCCC4)cc32)cc1C | 93 | 89 | 103 | x
Cc1oc(-c2ccc(Cl)cc2)cc1C(=O)N1CCN(Cc2ccccc2)CC1 | 107 | 83 | 97 | 1
Cc1ccc(NC(=O)CCCc2nc3cccnc3n2CCC(C)C)cc1 | x | x | 126 | -11
NS(=O)(=O)c1ccc(NC(=O)COc2ccc(F)cc2)cc1 | 75 | 90 | x | 6
CNC(=O)NCCc1ccc(Cl)cc1 | 101 | 90 | 103 | -25
CNC(=O)C(C)OC(=O)C1CCN(C2=NS(=O)(=O)c3ccccc32)CC1 (stereo unspecified) | 86 | 85 | x | -22
O=C1NC(=O)c2cc(NC(=O)C3CCCCC3)ccc21 | 93 | 80 | 93 | -9
COc1ccc(-c2cn(C(=O)c3cccs3)nc2C)cc1 | 115 | 83 | 101 | -4
Cc1nn(Cc2ccccc2)c(C)c1C(=O)OCc1cccc(S(=O)(=O)N(C)C)c1 | 101 | 60 | x | -14
CCOCCOc1nc(C)cc(C)c1C#N | 92 | 95 | 103 | -18
COc1ccc(CNc2nc3nc(CN4CCCC4)cc(=O)n3[nH]2)cc1 | x | x | 101 | -4
Cc1ccc2oc(-c3ccc(Cl)c(NC(=O)c4ccc5c(c4)OCCO5)c3)nc2c1 | x | x | 97 | -25
Cc1ccc(-c2nnc(Nc3ccc(O)cc3)c3ccccc23)cc1S(=O)(=O)NC(C)(C)CO | 73 | 82 | 107 | -19

Ordered by value in GIV-Gai inh (descending): 6 from the list above
| SMILES | Sa growth 42C second temp | GIV-Gai inh |
| --- | --- | --- |
| Cc1ccc(-c2nnc(Nc3ccc(O)cc3)c3ccccc23)cc1S(=O)(=O)NC(C)(C)CO | 82 | 107 |
| OCCN1CCN(c2nc(N3CCCCC3)nc(N3CCCCC3)n2)CC1 | x | 105 |
| N#C/C(=C\Nc1cccc(C(F)(F)F)c1)C(=O)N1CCOCC1 | 94 | 104 |
| Cc1ccc(CNC(=O)C2CCN(C(=O)c3ccnc(-c4ccccc4)c3)CC2)cc1 | x | 101 |
| CCN1CCOC(=O)C1CC(=O)Nc1cc(C)ccc1OC (stereo unspecified) | 68 | 99 |
| Cc1cc(C(C)(C)C)oc1C(=O)N(CC(=O)NC1CCCC1)c1ccc(F)cc1 | 92 | 96 |

Other records follow:
SMILES | Sa growth 42C | Sa growth 42C second temp | GIV-Gai inh | HCMV NEC inh
CCCc1ccc(OCC(=O)Nc2sc3c(c2C(=O)OCC)CCC(C(C)(C)C)C3)cc1 (stereo unspecified) | 96 | 103 | 108 | -7
c1ccc(CCc2nn3c(-c4cccnc4)nnc3s2)cc1 | x | x | 102 | 1
COc1cc2[nH]c(=O)n(CCCCCC(=O)NCCc3c[nH]c4ccccc34)c(=O)c2cc1OC | x | x | 103 | -27
Cc1ccc(C2CC(=O)Nc3n[nH]c(C)c32)c(C)c1 (stereo unspecified) | x | x | 102 | 6
COc1ccc2oc(C(F)(F)C(F)(F)C(F)(F)C(F)F)cc(=O)c2c1 | 88 | 78 | 115 | -8
COc1ccc(CCC(C(O)C(F)(F)F)S(=O)c2ccccc2)cc1 (stereo unspecified) | 83 | 88 | x | -14
COc1ccc(NS(C)(=O)=O)cc1 | x | x | 102 | -17
Cc1ccc(-c2cc(/C=C3/C(=O)C=Cc4ccccc43)c(O)o2)cc1 | 88 | 89 | x | -10
CNc1oc(-c2ccc(F)cc2)nc1S(=O)(=O)c1ccc(Cl)cc1 | x | x | 110 | 13

An excerpt from above in order of number of heavy atoms, ascending:
SMILES | Sa growth 42C | Sa growth 42C second temp | GIV-Gai inh | HCMV NEC inh
Cc1ccc(C2CC(=O)Nc3n[nH]c(C)c32)c(C)c1 (stereo unspecified) | x | x | 102 | 6
c1ccc(CCc2nn3c(-c4cccnc4)nnc3s2)cc1 | x | x | 102 | 1
CNc1oc(-c2ccc(F)cc2)nc1S(=O)(=O)c1ccc(Cl)cc1 | x | x | 110 | 13
COc1ccc(CCC(C(O)C(F)(F)F)S(=O)c2ccccc2)cc1 (stereo unspecified) | 83 | 88 | x | -14
CCCc1ccc(OCC(=O)Nc2sc3c(c2C(=O)OCC)CCC(C(C)(C)C)C3)cc1 (stereo unspecified) | 96 | 103 | 108 | -7
COc1cc2[nH]c(=O)n(CCCCCC(=O)NCCc3c[nH]c4ccccc34)c(=O)c2cc1OC | x | x | 103 | -27
